# VDR inhibitor: inhibitors of human vitamin D receptor. 400,000 tested, 0.93% active. AID 504847. Potency, µM, inactives show max response, negative = inhibition, actives largely listed as inhibitors. VDR-SRC2-3 peptide fluorescence polarization, 2 h; active = well fitted inhibition curve with a large enough effect; inconclusive = small, poorly fitted or top-dose-only effect, or another doubt; inactive = no such curve, though single readings can be large or run the other way; note: series mostly up to about 120 µM
# Target sequence (P11473 whole entry, looked up): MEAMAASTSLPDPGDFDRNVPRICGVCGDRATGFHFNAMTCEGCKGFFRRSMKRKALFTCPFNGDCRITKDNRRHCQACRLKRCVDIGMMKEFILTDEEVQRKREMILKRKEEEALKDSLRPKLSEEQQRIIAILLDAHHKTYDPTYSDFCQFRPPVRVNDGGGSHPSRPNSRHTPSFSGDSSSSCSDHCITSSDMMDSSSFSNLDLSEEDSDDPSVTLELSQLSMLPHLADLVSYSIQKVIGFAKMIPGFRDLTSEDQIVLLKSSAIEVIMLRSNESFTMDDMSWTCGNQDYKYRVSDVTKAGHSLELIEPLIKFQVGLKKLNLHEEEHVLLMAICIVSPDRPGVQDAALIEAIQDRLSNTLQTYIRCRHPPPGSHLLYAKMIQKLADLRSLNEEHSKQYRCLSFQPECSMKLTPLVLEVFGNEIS
#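 After 23 nl compound addition and a short centrifugation, plates sat for 2 hours at ambient temperature; polarization of fluorescence then indicated loss of VDR binding to peptide SRC2-3.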
# * hit, by the source's call; ? = inconclusive; & = joins results of further samples; [ ] = remark or other dose. % is set by controls: 0 for no effect and ±100 for the full control effect; potency is the fitted concentration of half-maximal effect. A portion of the library; rates above refer to the full screens.
canonical_smiles | VDR inhibitor
O=C(COc1ccc2c3c(c(=O)oc2c1)CCC3)Nc1ccccn1 | -4%
Cc1cccc(Nc2nnc(-c3ccc(N4CCOCC4)c([N+](=O)[O-])c3)c3ccccc23)c1 | 1%
O=C(N/N=C/c1ccccn1)c1cccc([N+](=O)[O-])c1 | -8%
Cc1ccc(C)c(NC(=O)CN2CCCN(Cc3cccc(Cl)c3)S2(=O)=O)c1 | 10%
Cc1ccn2cc(-c3ccc(NC(=O)c4ccco4)cc3)nc2c1 | 0%
CCC(CC)c1nnc(NC(=O)c2cc([N+](=O)[O-])ccc2N2CCOCC2)s1 | -14%
COc1ccc(N(CC(=O)NC(C)C)C(=O)CCC(=O)Nc2ccccn2)cc1 | 4%
COC(=O)[C@]1(Cc2ccccc2)N[C@H](CN(C)C(=O)Nc2ccccc2)[C@@H]2C(=O)N(C)C(=O)[C@@H]21 | 11%
CCN1CCN(C(=O)c2ccc(Cl)c(S(=O)(=O)N3CCCCCC3)c2)CC1 | -22%
COc1ccc(N2CC(C(=O)NNC(=O)c3ccc(Br)cc3)CC2=O)c(OC)c1 (stereo unspecified) | -6%
O=C(CCCN1C(=O)/C(=C/c2ccccc2)SC1=S)NCCCn1ccnc1 | -19%
Cc1ccc(CNC(=O)C2CCCN(S(=O)(=O)N3CC(C)CC(C)C3)C2)cc1 (stereo unspecified) | -1%
COc1ccc(N(CC(=O)NCCC2=CCCCC2)S(C)(=O)=O)cc1OC | 5%
COC(=O)C1(Cc2cc(-c3ccccc3)no2)CCN(C(=O)OC(C)(C)C)CC1 | 17%
COc1cc(C2C(c3ccccc3)C(c3cc(OC)cc(=O)o3)C2c2ccccc2)oc(=O)c1 (stereo unspecified) | -7%
CCOC(=O)C1CCN(C(=O)c2ccc(N3CCOCC3)c([N+](=O)[O-])c2)CC1 | -18%
CC(C)(C)NCc1cc(Cl)ccc1OCc1cccs1 | 8%
O=C(CCNS(=O)(=O)c1cccc2nsnc12)NCc1ccccc1Cl | 4%
COc1cc(S(=O)(=O)N2CCCCCC2)c(OC)cc1Br | -23%
O=c1nc(N/N=C/C=C/c2ccccc2)cn[nH]1 | 13%

# Further structures:
canonical_smiles | VDR inhibitor
CC(C(=O)Nc1ccc(S(=O)(=O)N2CCOCC2)cc1)N1C(=O)C2CC=CCC2C1=O (stereo unspecified) | 3%
CC1(O)CC2CC1C(C(=O)O)C2C(=O)O (stereo unspecified) | -12%
CC(NC(=O)c1ccc2nc[nH]c2c1)c1ccccc1 (stereo unspecified) | -3%
O=[n+]1c2c(n([O-])c3ccccc31)CCC2 | -13%
COc1ccc(O)c(C(=O)c2cc(C#N)c(=O)n(Cc3ccccc3)c2)c1 | -3%
O=C(C=CC(=O)OC1CCCCC1)OC1CCCCC1 | 4%
CCOc1ccc(N(C(=O)CNC(=O)c2cccs2)C(C(=O)NCC2CCCO2)c2ccc(OC)c(OC)c2)cc1 (stereo unspecified) | -16%
COc1cc(OC)c(NC(=O)CCCn2c(=O)oc3ccccc32)cc1Cl | -21%
Cc1cc(C)nc(NC(N)=NCCc2c[nH]c3ccccc23)n1 | 11%
Cc1cc(C)n(CCC(=O)N/N=C/c2ccc(Br)c([N+](=O)[O-])c2)n1 | -13%
O=c1oc2cc(OCc3c(F)cccc3Cl)ccc2cc1-c1ccccn1 | 22%
COc1ccc2cc(N=Cc3nc(-c4ccc(C)cc4)oc3O)cnc2c1 | 1%
CC1Cc2cc(/C(O)=C3\C(=O)C(=O)N(CCN(C)C)C3c3ccccc3F)ccc2O1 (stereo unspecified) | 10%
COc1ccc(CC(=O)NNC(=S)NC(=O)c2cccnc2)cc1 | 2%
Fc1ccc(-c2c[nH]c(=S)n2Cc2ccccc2)cc1 | ?
CC1(C)Cc2c(c(N3CCOCC3)nc3sc(C(=O)Nc4cccc(Cl)c4)c(N)c23)CO1 | -7%
CCSc1ncc(Cl)c(C(=O)N2CCN(c3ccc(OC)cc3)CC2)n1 | 2%
CCOC(=O)N1CCN(S(=O)(=O)c2cc(Br)cnc2N)CC1 | 6%
Cc1cc(=O)oc2cc(Oc3ccc(C(N)=O)cc3[N+](=O)[O-])ccc12 | -12%
CCOC(=O)[C@@H]1[C@H]2COc3cc(OC)ccc3[C@H]2N2C(=O)N(c3ccc(F)cc3)C(=O)[C@@]12C | -14%

# Compounds listed so far that contain bromine, in the order listed:
canonical_smiles | VDR inhibitor
COc1ccc(N2CC(C(=O)NNC(=O)c3ccc(Br)cc3)CC2=O)c(OC)c1 (stereo unspecified) | -6%
COc1cc(S(=O)(=O)N2CCCCCC2)c(OC)cc1Br | -23%
Cc1cc(C)n(CCC(=O)N/N=C/c2ccc(Br)c([N+](=O)[O-])c2)n1 | -13%
CCOC(=O)N1CCN(S(=O)(=O)c2cc(Br)cnc2N)CC1 | 6%

# Additional records follow.
canonical_smiles | VDR inhibitor
CC(=O)Nc1ccc(S(=O)(=O)Nc2c(NC3CCCCC3)c3ccccc3oc2=O)cc1 | -16%
CCOc1ccc(Oc2nc(N(CC)CC)nc(N3CCOCC3)n2)nn1 | -20%
CC(=O)c1sc(NC(=O)c2cnc(Cl)c(Cl)c2)nc1C | -5%
COC(C[C@@H](O)[C@H](C)[C@H](O)COCc1ccccc1)OC | -7%
CCc1ccc(-c2nc(CN3CCC(C(=O)NCc4ccccc4OC)CC3)c(C)o2)cc1 | 9%
COc1ccc(C(=O)COC(=O)c2cncc(Br)c2)cc1 | -7%
CC(C)[C@H](NC(=O)N1CCn2c1nc1ccccc12)C(=O)NCc1ccccc1Cl | 4%
Cc1ccc(C(=O)CCC(=O)NC2=NCCS2)cc1 | 8%
Cc1cc(C(=O)Nc2ccc(S(=O)(=O)Nc3nccs3)cc2)c(C)o1 | -13%
COc1ccc(CCC(=O)N2CCN(c3ccccc3)CC2)cc1OC | 4%
COc1cccc(CNC(=O)CSc2cc(=O)n(C)c3ccccc23)c1 | 1%
O=C(OCC(=O)N1CCOCC1)c1cnc(Cl)c(Cl)c1 | 4%
COc1ccc(C(c2sc3nc(C)nn3c2O)N2CCN(Cc3ccccc3)CC2)cc1OC (stereo unspecified) | -7%
CCN1C(=O)c2cccc3c(S(=O)(=O)Nc4ccc(O)c(C(=O)O)c4)ccc1c23 | -8%&-15%
Oc1ccccc1C=NN=Cc1c(O)ccc2ccccc12 | -22%
COc1ccc(NC(=O)CCN2CCCCCC2)c(OC)c1 | 3%
CCCCOc1ccc(CNn2c(C)nc3ccccc3c2=O)cc1 | 28%
CCS(=O)(=O)Nc1ccc(C2=NN(C(=S)Nc3ccccc3)C(c3ccco3)C2)cc1 (stereo unspecified) | -1%
CC(=O)Nc1ccccc1OCC(=O)NC(C)c1ccc(F)cc1 (stereo unspecified) | -19%
O=C(NC(=S)NCCc1ccccc1)c1ccco1 | 3%

# The closing 6 entries of the part before come first, to join the parts:
Molecule	VDR inhibitor
Oc1ccccc1C=NN=Cc1c(O)ccc2ccccc12	-22%
COc1ccc(NC(=O)CCN2CCCCCC2)c(OC)c1	3%
CCCCOc1ccc(CNn2c(C)nc3ccccc3c2=O)cc1	28%
CCS(=O)(=O)Nc1ccc(C2=NN(C(=S)Nc3ccccc3)C(c3ccco3)C2)cc1 (stereo unspecified)	-1%
CC(=O)Nc1ccccc1OCC(=O)NC(C)c1ccc(F)cc1 (stereo unspecified)	-19%
O=C(NC(=S)NCCc1ccccc1)c1ccco1	3%
O=C(Nc1ccccc1)Nc1ccc(F)c([N+](=O)[O-])c1	-2%
O=S(=O)(Nc1ccncc1)c1ccccc1	2%
CCSc1ccc([C@@H]2[C@@H]3C(=O)N(CC)C(=O)[C@@H]3[C@]3(C(=O)OC)CCCCN23)cc1	-18%
COc1cccc(C(=O)OCC(=O)Nc2cc(C)on2)c1OC	-3%
CCOc1cccc(/C(O)=C2/C(=O)C(=O)N(CCN3CCOCC3)C2c2cccnc2)c1 (stereo unspecified)	-1%
CC1(C)N=C(/C=N/O)C=[N+]1[O-]	-7%
O=C(NCc1ccccc1)c1ccccc1OCC(=O)N1CCCCC1	-6%
CC(NC(=O)c1cccc(OC2CCN(C(=O)C3CC3)CC2)c1)c1ccc(F)cc1 (stereo unspecified)	5%
Cc1noc(C)c1S(=O)(=O)N1CCC(C(=O)N2CCC(N3CCCCC3)CC2)CC1	-2%
COc1ccccc1C(=O)COC(=O)CNC(=O)c1ccc(Br)o1	9%
CCC(=O)Nc1cccc(C2=NOC3(C2)C[C@@H](C(N)=O)N(C(=O)COc2ccc(Cl)cc2)C3)c1 (stereo partly specified)	-9%
O=C(CN1c2ccccc2Sc2ccccc21)N/N=C/c1ccc([N+](=O)[O-])cc1	-2%
Cc1ccc(/C=N\NC(=O)C2COc3cc4ccccc4cc3O2)o1 (stereo unspecified)	-5%
Cc1ccc(SCCOCCN2CC(C)OC(C)C2)cc1 (stereo unspecified)	5%
COc1ccc(OCc2ccc(-c3nc(C#N)c(N4CCC(C(N)=O)CC4)o3)o2)cc1	18%

# Further compounds follow.
Molecule	VDR inhibitor
CCc1ccccc1NC(=O)C1=CC(c2ccc(OC)c(OC)c2)=NS(=O)(=O)N1C	-8%&23%
CCN(CC)S(=O)(=O)c1cc(C(=O)Oc2cccc(-c3cnc4ccccc4n3)c2)ccc1OC	-12%
Cc1cccc(NC(=O)Cn2nnc(-c3cccs3)n2)c1C	4%
CC(=O)N1CCN(c2ccc(NC(=O)c3cccc([N+](=O)[O-])c3)cc2)CC1	-7%
CCOC(=O)N1CCN(c2ccc(F)cc2[N+](=O)[O-])CC1	-1%
CC(=O)c1c(C)[nH]c(C(=O)Nc2ccc(C)cn2)c1C	9%
Cn1ncc2c(NCc3ccccc3)nc(NCCCO)nc21	-4%
Nc1cc(N)nc(SCC(=O)NCC2CCCO2)n1 (stereo unspecified)	-3%
Cc1nn(C)cc1CNC(=O)c1cccc(Br)c1	14%
COC(=O)[C@@H]1CCCN1C(=O)c1cc(COc2cccc3cccnc23)on1	4%
COc1ccc(N2CCN(c3ncnc4scc(-c5ccc(F)cc5)c34)CC2)cc1	12%
Cc1ccccc1NC(=O)CCN1CCCCCC1	0%
COc1cccc(OC)c1C(=O)OCC(=O)NCC(C)C	-11%
O=C(/C=C/N1CCOCC1)c1ccc(-c2ccccc2)cc1	-14%
O=P(O)(O)OC[C@H]1O[C@](O)(COP(=O)(O)O)[C@@H](O)[C@@H]1O	-3%

# Additional records follow.
Molecule	VDR inhibitor
CCOC(=O)c1[nH]c(C)c(/C(O)=C2\C(=O)C(=O)N(CCN(C)C)C2c2ccncc2)c1C (stereo unspecified)	-5%
CC(=O)c1cccc(NC(=O)C2CC(c3ccc(F)cc3)=NO2)c1 (stereo unspecified)	-5%
CCCn1nnnc1SCC(=O)N1CCN(C(=O)c2ccco2)CC1	-16%
Cc1ccc(-c2noc(CC(c3ccccc3)c3ccccc3)n2)cc1	1%
Cc1ccc(C2NC(=O)NC(O)(C(F)(F)F)C2C(=O)c2cccs2)o1 (stereo unspecified)	4%
O=[N+]([O-])c1ccc(S(=O)(=O)NCC(c2ccco2)N2CCc3ccccc3C2)cc1 (stereo unspecified)	-17%
Cc1ccc(C23CCC(=O)N2C(C(=O)O)CS3)c(C)c1 (stereo unspecified)	-1%
COC(=O)c1cc(CSc2nnc(NC3CCCCC3)s2)oc1C	-5%
CC(C)(C)C(=O)Nc1nnc(COc2ccc(Cl)cc2)s1	-15%
COC(=O)CCC(=O)Nc1sc(C)c(C)c1C(N)=O	50µM*
Cc1nn(-c2ccccc2)c2c1C(c1ccc(Cl)cc1)N(c1ccccc1)C(=O)N2 (stereo unspecified)	112%[activator]
CCCCn1c(N)c(N(CCOC)C(=O)COC(=O)c2ccccc2OCC)c(=O)[nH]c1=O	17%
CC(=O)N/C(=C\c1ccc(F)cc1)C(=O)NC(Cc1ccccc1)C(=O)O (stereo unspecified)	-11%
O=C1CCCC2=C1C(c1ccc(OS(=O)(=O)c3ccc(Cl)cc3)cc1)C1=C(CCCC1=O)O2	0%
COc1ccc2c(c1)O[C@@H](c1ccc3c(c1)OCO3)[C@H](OC(=O)NS(=O)(=O)c1ccc(F)cc1)C2=O	-7%

# (cont.)
Molecule	VDR inhibitor
Cc1noc(C)c1CSc1nnc2n(-c3ccccc3)c(=O)c3ccccc3n12	0%
COc1ccc(C(=O)CSc2ncnc3nc[nH]c23)cc1	2%
Cc1ccc(CC(=O)NCCCc2ccccc2)cc1	12%
CCc1cccc(CC)c1NC(=O)NC1CCCCC1	2%
COc1cccc(NC(=O)N2CCC(n3nnc4ccccc43)CC2)c1	12%
O=C(COC(=O)c1n[nH]c2ccccc12)Nc1ccccc1Br	-6%
CC(C)Cc1nnc(NC(=O)CCC(=O)NC2CCCCCCC2)s1	3%
COc1ccc(C(=O)C2CCCN(C(=O)c3ccc(F)cc3)C2)cc1OC (stereo unspecified)	2%
Cc1ccc(/C=N/NC(=O)c2cccs2)cc1[N+](=O)[O-]	-10%
Cc1ccccc1CNC(=O)C1CCCN(S(=O)(=O)N(C)c2ccc(F)cc2)C1 (stereo unspecified)	5%
CCN(CC)C(=O)C(=O)c1cccn1-c1cccc(OC)c1C#N	-14%
Cc1c(C(=O)NCC2CCCO2)oc2c(Cl)cccc12 (stereo unspecified)	-7%
CN(CC(=O)Nc1ccc(OC(F)(F)F)cc1)S(=O)(=O)c1ccc2c(c1)CCC(=O)N2	-16%
O=C(NC1CCCC1)C1CCC(CNS(=O)(=O)c2ccccc2)CC1 (stereo unspecified)	-7%
Cc1nnc(SCC(=O)N/N=C/c2cc(Cl)c(O)c(Cl)c2)s1	-10%

# Carrying on:
Molecule	VDR inhibitor
O=C(O)C1=C[C@@H](C2CC2)C[C@@H](OCCCCO)O1	-22%
CCC(=O)Nc1nn(C)c2nc3c(C)cccc3cc12	-7%
CC(C)(C)NC(=S)N/N=C/c1cc(Br)c(O)c(Br)c1	-11%
CC(=O)N(Cc1cc(=O)[nH]c2ccccc12)c1ccc(C)cc1C	-8%

# Screening results: PubChem, National Center for Advancing Translational Sciences (NCATS)
